CtBP-E1A inh – inhibitors of CtBP/E1A interaction; AlphaScreen GST-E1A/His-CtBP binding, 1536-well; hits give low values; control for the full effect not named in the record; activity change, % (test concentration not listed); 0.49% of 340,000 active; AID 651724; in the data active means activity change below about -65%; inconclusive means about -30% to -65%; inactive means above about -30%; note: % is set by controls: 0 for no effect and ±100 for the full control effect; compound concentration not given in the record
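GST-E1A and His-tagged CtBP (125 nM each as 5X stock) were preincubated with pin-transferred compound for 2 h at 37 °C in the dark, then glutathione donor and nickel acceptor beads were added for 1 h before AlphaScreen reading.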
D2 potentiator – potentiates the human D2 dopamine receptor allosterically | DiscoveRx D2 beta-arrestin cells, luminescence, 90 min; 100% = 57 uM dopamine signal | potentiation, % (concentration not given with the values) | 0.23% of 360,000 active; active = potentiation of 50% or more; inconclusive = 30% to 50%; inactive = 30% or less;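 note: compound concentration not given in the record; tested on top of an EC20 dose of dopamine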
Target sequence (P14416 whole entry, looked up): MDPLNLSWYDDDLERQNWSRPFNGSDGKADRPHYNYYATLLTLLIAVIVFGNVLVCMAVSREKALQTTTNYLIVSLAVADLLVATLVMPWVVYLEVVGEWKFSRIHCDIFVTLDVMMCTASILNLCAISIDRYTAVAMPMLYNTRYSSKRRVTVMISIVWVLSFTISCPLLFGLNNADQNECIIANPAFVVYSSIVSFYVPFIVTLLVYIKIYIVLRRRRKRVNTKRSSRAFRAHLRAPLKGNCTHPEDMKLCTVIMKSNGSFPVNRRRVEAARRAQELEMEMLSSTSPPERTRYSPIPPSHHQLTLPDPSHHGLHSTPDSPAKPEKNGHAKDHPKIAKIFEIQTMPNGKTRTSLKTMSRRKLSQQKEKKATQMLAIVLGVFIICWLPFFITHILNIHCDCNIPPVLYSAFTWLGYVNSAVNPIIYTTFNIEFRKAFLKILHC
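PathHunter D2 cells, attached overnight at 37 deg C, received compound in DMSO plus dopamine at EC20 (50 nM final) for 90 min at 37 deg C. Beta-arrestin recruitment was read as luminescence after 1 h with detection reagent at ambient temperature.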
Six1-Eya2 inh – inhibitors of human Six1/Eya2 interaction | Q15475+O00167 | AlphaScreen GST-Six1/His-Eya2 binding, biochemical; hits give low values; control for the full effect not named in the record | activity change, % (concentration not given with the values) | 0.56% of 360,000 active | AID 651725; in the data active = activity change below about -65%; inconclusive = about -30% to -65%; inactive = above about -30%; note: % is set by controls: 0 for no effect and ±100 for the full control effect
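Six1/Eya2 binding was read as AlphaScreen signal after compounds were pinned into GST-Six1 plus His-tagged Eya2 (5X stock 250/500 nM) in pH 8.0 Tris/NaCl/TCEP buffer, beads added, then incubated 1 h, 37 C, dark.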
D2 ag – human D2 receptor agonism in beta-arrestin assay; P14416; DiscoveRx PathHunter D2 beta-arrestin, luminescence, 90 min; 100% = 57 uM dopamine signal; activation, % (test concentration not listed); 0.084% of 360,000 active; AID 624465; in the data active = activation above about 40%; inconclusive = about 15% to 40%; inactive = below about 15%; note: compound concentration not given in the record; the text of the record calls up to 30% inactive
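Agonist mode: compounds alone added to overnight-plated D2 PathHunter cells for 90 min at 37 C, with 57 uM final dopamine (EC100) defining full response. Beta-arrestin recruitment detected by chemiluminescent reagent, read after 1 h at ambient temperature.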
PINK1 modulator – PINK1 expression modulation | Potency, µM (doses to about 76.6 µM), inactives show at the top dose activation (PINK1 increase), usual class: activators | PINK1 immunofluorescence, high-content cytometry, 24 h | 0.2% of 410,000 active; active = well fitted activation curve with a large enough effect; inconclusive = small, poorly fitted or top-dose-only effect; inactive = flat fitted curve, though single readings scatter; cell line not stated here;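 note: potency is the fitted concentration of half-maximal effect; % of control where 0% means no effect; nearly all actives have a fitted effect of over 65% in size; a mitochondrial uncoupler was the plate control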
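Cells are seeded, rested 12 hours, then given compound at five concentrations or DMSO for 24 hours. After fixation, blocking and antibody staining, PINK1 amount and mitochondrial localization are scored; CCCP serves as control.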
TRPV1 potentiator – potentiators of human vanilloid receptor 1 (TRPV1); potentiation, % at 8.33 µM; 0.02% of 320,000 active; TRPV1-expressing cells, Fluo-8 calcium influx, capsaicin EC20 potentiation; host cell line not named in the record; control for the full effect not named in the record; Q8NER1; active means potentiation above 80%; inconclusive means 30% to 80%; inactive means below 30%; note: 0% is about no effect
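Cells expressing TRPV1 were dye-loaded with Fluo-8 and read kinetically: 10 s baseline, 3 min after compound (agonist portion), then 2 min after EC20 capsaicin (allosteric enhancer portion). Calcium-bound dye fluorescence at 480/520 nm.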
Sfp inh – blocks B. subtilis Sfp PPTase activity; Q9F4F7; Biochemical Sfp PPTase activity, qHTS; Potency, µM, for inactives: max response, negative = inhibition, most hits filed as inhibitors; 3.5% of 310,000 active; active = well fitted inhibition curve with a large enough effect; inconclusive = small, poorly fitted or top-dose-only effect, or another doubt; inactive = no such curve, though single readings can be large or run the other way;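 note: the enzyme is Sfp with the accession as filed and its product quenches rhodamine fluorescence; potency is the fitted concentration of half-maximal effect; 0% = enzyme reaction without inhibitor and -100% = no enzyme wells; top concentration of the series not given in the record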
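Fluorescence-quenching assay with 15 nM Sfp, 5 uM rhodamine-CoA and 12.5 uM BHQ-2-labelled ybbR peptide in pH 7.6 Hepes/MgCl2 buffer. Enzyme was pre-incubated with compound for 15 min at room temperature. Rate was taken from the 30-min fluorescence change (525/598 nm).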
Active calls of the source: *; ? = inconclusive; . = not tested or not shown; [ ] = remark or other dose.

SMILES	CtBP-E1A inh	D2 potentiator	Six1-Eya2 inh	D2 ag	PINK1 modulator	TRPV1 potentiator	Sfp inh
CCN(CC)S(=O)(=O)c1ccc(N2CCCC2)c(NC(=O)C2CSC3(C)CCC(=O)N23)c1 (stereo unspecified)	0	11	1	0.2	7.0%	7	.
Cn1c(NC(=O)c2ccco2)c(-c2ccccc2)c(=O)c2ccccc21	3	-8	-1	-1.5	-0.9%	-8	7%
O=C(O)c1ccc2cccc(O)c2n1	-20	20	-15	8.5	0.9%	8	2.8µM*
CCO/N=C(\C)c1c(O)c(CC)c(-c2ccccc2)n(-c2ccccc2)c1=O	-1	-31	-3	-3.1	3.9%	4	10%
COc1cc(/C=C/C(=O)OCC(=O)NCC2CCCCC2)ccc1O	4	-15	7	-0.3	0.9%	-13	.
CCOC(=O)c1c(-c2ccccc2)csc1NC(=O)c1nn(CC)cc1Br	13	1	3	-0.3	.	-11	-23%
COC(=O)c1ccc(NC(=S)NC(=O)c2c(Cl)cnn2C)cc1	5	-14	-4	-7.5	0.5%	-2	50µM*
CN(Cc1ccccc1)C(=O)c1cccc(NC(=O)Cc2ccc(NC(=O)C3CCN(C(=O)C4CCC4)CC3)cc2)c1	-1	.	-1	0.1	0.8%	.	.
COc1ccc(CC(=O)Nc2ccc(-c3noc(-c4ccccc4OC)n3)cc2)cc1	3	13	2	3.7	5.7%	6	1%
CCOC(=O)C1NN=C(C(=O)c2ccccc2)C1c1ccc(OC)cc1 (stereo unspecified)	-17	-8	-2	-4.3	-0.1%	7	-2%
O=C(O)C1CCCCC1C(=O)NCCCN1CCOCC1 (stereo unspecified)	9	-9	0	0.6	0.7%	-3	29%
COC(=O)CNc1nc(-c2ccccc2F)nc2ccccc12	5	-3	-3	-1.5	-1.3%	-1	18%
CCNc1ccc(Br)cc(C(=O)/C=C/c2c(Cl)cccc2Cl)c1=O	-3	-20	-12	-4.6	2.2%	10	16µM*
O=S(=O)(c1ccc2c(c1)OCCO2)N1CCN(Cc2ccc3c(c2)OCO3)CC1	-1	-11	-8	0.8	-4.7%	-32	1%
CCOCCCNC(=O)C(c1ccc(OC)cc1)N(Cc1cccs1)C(=O)c1ccccn1 (stereo unspecified)	1	17	7	0.0	1.7%	0	15%
CCCCCCCCc1nc(=S)[nH][nH]1	8	7	-1	1.9	-0.6%	-10	20µM*
C[C@H](NC(=O)c1ccco1)C(=O)Nc1ccc(C#N)cc1	4	-2	12	-3.0	0.2%	-8	21%
Cc1ccc(NC(=O)NCc2ccccn2)cc1	-23	-10	-1	2.3	0.0%	-15	10%
COCc1cc(CN2CCN(CCc3ccccc3)C(CCO)C2)ccc1OC (stereo unspecified)	4	-27	0	-0.3	0.1%	12	6%
O=C(O)CC(CC(=O)Nc1ccccc1C(=O)O)c1ccccc1 (stereo unspecified)	3	3	1	-0.9	0.2%	24	0%

Records listed above printed as active in Sfp inh.
Structure,CtBP-E1A inh,D2 potentiator,Six1-Eya2 inh,D2 ag,Sfp inh
O=C(O)c1ccc2cccc(O)c2n1,-20,20,-15,8.5,2.8µM*
COC(=O)c1ccc(NC(=S)NC(=O)c2c(Cl)cnn2C)cc1,5,-14,-4,-7.5,50µM*
CCNc1ccc(Br)cc(C(=O)/C=C/c2c(Cl)cccc2Cl)c1=O,-3,-20,-12,-4.6,16µM*
CCCCCCCCc1nc(=S)[nH][nH]1,8,7,-1,1.9,20µM*

Other results:
SMILES	CtBP-E1A inh	D2 potentiator	Six1-Eya2 inh	D2 ag	PINK1 modulator	TRPV1 potentiator	Sfp inh
CSc1nc(O)c(/C=C2\C=Nc3ccccc32)[nH]1	-28	-22	-11	-4.9	5.0%	-3	-4%
COc1ccc(OC)c(-n2c(SCC(N)=O)nnc2-c2c[nH]c3ccccc23)c1	5	-3	2	-1.2	0.5%	-2	12%
O=[N+]([O-])c1ccc2nc(-[n+]3c(-c4ccccc4)cc(-c4ccccc4)cc3-c3ccccc3)[nH]c2c1	-4	-14	-5	-2.1	16%	12	-5%
Cc1cccc(N(C(=O)c2ccco2)C(C(=O)NC2CCCC2)c2ccco2)c1C (stereo unspecified)	12	-7	-7	-1.7	0.3%	18	18%
Cc1onc(-c2c(Cl)cccc2Cl)c1C(=O)ONC(=O)c1cc(C(F)(F)F)cc(C(F)(F)F)c1	9	-10	13	-1.3	0.5%	3	14%
CN(C)CCSc1nnc(-c2ccccc2)o1	0	-4	-10	-1.9	0.4%	-1	7%
Brc1ccc(/C=N/Nc2ncnc3c2cnn3Cc2ccccc2)cc1	-3	8	1	0.3	12%	?	7%
O=c1[nH][nH]c2c1[C@H](c1ccc(F)cc1)O[C@H](CCC(F)(F)F)C2	-26	.	2	.	-0.7%	.	.
Cc1ccsc1/C=N/NC(=O)c1nnn(-c2nonc2N)c1-c1ccc2c(c1)OCO2	-13	0	-6	-1.7	2.4%	12	4%
CN1CCN(c2ccc(S(=O)(=O)N3CCCCC3)cc2NC(=O)Cc2ccc(Cl)cc2)CC1	6	-4	6	2.5	3.0%	-7	2%
Cc1cc(=O)oc2cc(OCC(=O)NC3CCCCC3)ccc12	4	-4	5	-1.2	-0.2%	0	0%
Cc1cccnc1Nc1nc(-c2ccc(O)cc2O)cs1	-9	4	-15	3.3	1.3%	0	45µM*
Cc1ccc(C(=O)c2sc3nsc(C)c3c2N)cc1	-2	-7	11	-0.7	?	-6	-6%
COc1ccc(-c2nc(C#N)c(N3CCN(C(=O)c4ccco4)CC3)o2)cc1OC	.	-4	2	-0.1	4.1%	-1	8%
COc1cccc(NC(=S)NC(=O)Cc2ccccc2)c1	.	-16	2	-5.6	0.3%	.	.
O=C(CSc1ccccn1)Nc1ccc2c(c1)OCCO2	-9	-11	-15	1.2	-0.9%	-25	14%
O=C(CSc1ccc(Cl)cc1)NC(=O)NCc1ccco1	-1	-5	-11	-6.0	-0.2%	-4	-11%
O=C(O)/C=C/c1cnc[nH]1	-1	-11	7	-6.8	-0.5%	8	-17%
CC1(C(=O)NS(=O)(=O)c2ccc(F)cc2F)CCN1C(=O)Cc1ccccc1Cl (stereo unspecified)	2	-5	12	-2.9	-1.0%	.	.
O=S(=O)(CCSc1ccc(C(F)(F)F)cn1)c1ccccc1	.	-16	15	-2.2	0.5%	-20	14%
CN(C)S(=O)(=O)c1cccc(C(=O)Nc2ccc(S(=O)(=O)N3CCCC3)cc2)c1	1	-9	4	2.6	0.7%	5	2%
CCOc1ccc(NC(=O)/C(C#N)=C/c2cn(CC(=O)O)c3ccccc23)cc1	-2	-5	-4	-3.5	1.1%	1	-3%
COc1ccccc1N(C(=O)CNC(=O)c1ccco1)C(C(=O)NC1CCCC1)c1ccco1 (stereo unspecified)	4	-3	2	0.3	1.1%	-1	-5%
Cc1ccc(S(=O)(=O)O/N=C2/CCCc3occc32)cc1	2	4	15	-0.6	1.1%	7	9%
CCn1ncc(Br)c1C(=O)Nc1cc(C(=O)OC)ccc1C(=O)OC	4	0	10	-5.5	9.2%	-2	5%
Nn1c(Nc2ccccc2)nc2sc3c(c2c1=O)CCC3	-4	-8	-7	-2.5	-1.1%	-15	-22%
COC(=O)c1sc2nc(SCC(=O)N(C)c3ccccc3)n(N)c(=O)c2c1C	.	-10	1	3.8	-0.7%	-6	?
Cc1cc(NC(=O)CSCC(=O)Nc2cccc(S(=O)(=O)N3CCCCCC3)c2)no1	-18	9	-17	-2.4	-0.1%	-6	.
CN(C)c1ccc(-c2c(-c3ccc4c(c3)OCO4)noc2-c2ccsc2)cn1	-1	-6	-16	-0.9	2.3%	1	-2%
Cc1ccccc1OCC(=O)N/N=C/c1sc(=O)n(Cc2cccc(C(=O)O)c2)c1Cl	21	1	7	1.1	1.1%	0	-12%
O=C(CSc1nnc(-c2ccncc2)n1Cc1ccco1)Nc1nccs1	-3	-10	0	-5.3	1.3%	-3	13%
Cc1ccc(C(=O)NCCSc2c(C)[nH]c3ccccc23)cc1[N+](=O)[O-]	0	-1	-16	8.8	10%	25	-11%
CSc1ccccc1NC(=O)c1cnccn1	0	3	4	-0.5	7.4%[38.3 µM]	10	-27%
CC(C#N)Sc1ccc(S(=O)(=O)N(C)C2CCCCC2)cn1 (stereo unspecified)	9	-2	9	-0.2	2.0%	-28	.
Cc1csc(NC(=O)C2COc3ccccc3O2)n1 (stereo unspecified)	-6	-40	-1	-3.4	-0.5%	-18	14%
CCOc1ccccc1N1CCN(C(=O)COc2ccc3c(C)cc(=O)oc3c2)CC1	3	-2	-6	1.2	-1.7%	4	21%
O=C(CC[C@H]1O[C@@H](n2ccc(=O)[nH]c2=O)[C@H](O)[C@@H]1O)NCc1ccccc1	-5	-6	-6	-4.9	-0.8%	.	.
CCN1CCc2nc(NC(=O)CC(c3ccccc3)c3ccccc3)sc2C1	-6	12	0	0.0	0.0%	3	-23%
COc1ccc2c(c1)C(=O)Nc1cc(Cl)ccc1N2	-1	-5	1	-0.6	0.7%	.	.
CCOC(=O)c1cc(C)sc1NC(=O)CN1CCN(C(=O)C2CCCO2)CC1 (stereo unspecified)	-6	-5	1	-3.7	1.0%	3	2%
CCOC(=O)N1CCN(C(=O)CSc2ccc(-c3ccc(OC)cc3)nn2)CC1	6	4	-3	0.5	3.3%	25	18%
CC1=C(C(=O)N(C)C)CC(CC(=O)NCC2CCCCC2)C(=O)N1Cc1ccc(C(C)(C)C)cc1 (stereo unspecified)	3	-1	-1	-10	-0.7%	.	.
COCCN1C(=O)N[C@@H](CCc2ccccc2)C(C(C)=O)=C1C	7	-9	0	0.8	-0.1%	-4	?
CC(C)COC(=O)C1[C@H]2C(=O)N(Cc3cccs3)C[C@]23C=C[C@H]1O3 (stereo partly specified)	2	-9	5	2.1	3.9%[38.3 µM]	-5	-1%
Cc1ccc2nc(NS(C)(=O)=O)sc2c1	-6	-8	6	-5.4	0.2%	3	7%
Cc1ccc(CCNC(=O)Cn2cccc2)cc1	3	-6	-14	1.5	?	-11	0%
CCOCCC(=O)Nc1cc(Cl)ccc1OC	3	-17	-2	-2.4	7.3%[38.3 µM]	-3	13%
Cc1ccccc1-c1csc(C(C)(O)c2ccccc2)n1 (stereo unspecified)	6	-7	8	-5.8	10%	.	.
O=C(CCCc1ccccc1)NCc1ccccc1Cl	2	-10	5	0.9	1.4%	-33	16%

Assay outcomes (PubChem BioAssay)
